PD-1 reversal: activators reversing PD-1 mediated T-cell inhibition. primary human CD4 T cells, PD-L1 beads, CellTiter-Glo 96 h. activation, % (concentration not given with the values). 29,000 tested, under 10 active;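 active = replicate mean of 50% or more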;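 also: 0% = median vehicle wells and 100% = positive control; 100 nL library stock added to about 50 µL; numbers are from one replicate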
YB-1 expr inh: YB-1 expression inhibition. U2OS, qRT-PCR YB-1 vs CDIP delta delta Cp, 16 h; stronger effect = higher value; zero = DMSO, each unit about twofold. actives 0.37% (n = 30,000). delta delta Cp (YB-1 minus CDIP) (test concentration not listed);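 active = delta delta Cp rounded down to an integer at or above 3, about 3 SD of DMSO wells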;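 also: higher means less YB-1 transcript or more CDIP transcript relative to DMSO; stock transfer was 100 nL into about 100 µL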
Hedgehog inh: Sonic Hedgehog pathway inhibition; Shh-LIGHT2 Gli-luciferase reporter, 30 h; inhibition, % (test concentration not listed); actives 2.1% (n = 22,000); AID 2313;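 active = replicate mean of 65% or more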;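 also: pathway switched on by Shh-conditioned medium diluted 1 in 25 in low serum; 100 nL library stock added to about 40 µL; 0% = median of neutral wells and 100% = positive control level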
MITF inhib: blocks MITF activity; AID 2240; inhibition, % (concentration not given with the values); TRPM1 promoter luciferase, luminescence, 24 h; actives 0.28% (n = 37,000);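 active = most replicates at 85% or more, or half of them and the mean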;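 also: human melanocyte line stably carrying TRPM1 promoter luciferase reporter; 0% = vehicle wells and 100% = a positive control; the first replicate is given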
Active calls of the source: *. A portion of the library, so the mix of outcomes need not match the whole.

Results for C[C@H](CO)N1C[C@H](C)[C@H](CN(C)Cc2ccc(C(F)(F)F)cc2)Oc2c(NC(=O)C3CCOCC3)cccc2C1=O ?
PD-1 reversal: 0.6; YB-1 expr inh: -0.44; Hedgehog inh: -8; MITF inhib: -20

How did COc1ccc(S(=O)(=O)Nc2ccc3c(c2)C(=O)N([C@H](C)CO)C[C@H](C)[C@@H](CN(C)C(=O)CCC(F)(F)F)OCCCC[C@@H](C)O3)cc1 do in these assays?
YB-1 expr inh: -0.041; MITF inhib: 6

How did C[C@@H]1CN([C@H](C)CO)C(=O)c2cc(NC(=O)Nc3ccc(C(F)(F)F)cc3)ccc2O[C@@H]1CN(C)Cc1ccc(-c2ccccc2)cc1 do in these assays?
PD-1 reversal: 0.7; YB-1 expr inh: -0.031; Hedgehog inh: -21; MITF inhib: 5

Results for C[C@@H]1CN([C@H](C)CO)C(=O)c2cc(NC(=O)Nc3ccc4c(c3)OCO4)ccc2O[C@@H]1CN(C)Cc1ccc(C(=O)Nc2ccccc2N)cc1 ?
PD-1 reversal: -0.7; YB-1 expr inh: 0.2; MITF inhib: -5

How did COc1ccccc1CCNC(=O)Nc1cccc([N+](=O)[O-])c1 do in these assays?
PD-1 reversal: -2.4; MITF inhib: 19

How did CC(C)NC(=O)Nc1ccc2c(c1)C(=O)N([C@@H](C)CO)C[C@H](C)[C@@H](CN(C)C(=O)Nc1ccc(C(F)(F)F)cc1)O2 do in these assays?
PD-1 reversal: -0.6; YB-1 expr inh: -0.14; Hedgehog inh: -35; MITF inhib: 7

What do the screens show for `C[C@@H]1CN([C@H](C)CO)C(=O)c2cccc(NC(=O)NC3CCCCC3)c2O[C@@H]1CN(C)C(=O)Nc1cccc2ccccc12`?
PD-1 reversal: 1.3; YB-1 expr inh: -0.54; Hedgehog inh: 26; MITF inhib: -6

Results for C[C@H]1CN([C@@H](C)CO)C(=O)c2cc(NC(=O)Cc3cn(C)c4ccccc34)ccc2O[C@@H]1CN(C)C(=O)NC1CCCCC1 ?
PD-1 reversal: -1.1; YB-1 expr inh: 0.1; Hedgehog inh: -3; MITF inhib: 13

Results for C[C@H](CO)N1C[C@H](C)[C@@H](CN(C)C(=O)Nc2cccc3ccccc23)Oc2ccc(NS(=O)(=O)c3cn(C)cn3)cc2C1=O ?
PD-1 reversal: 0.2; YB-1 expr inh: -0.11; Hedgehog inh: -25; MITF inhib: 1

Results for COc1ccc(NC(=O)Nc2cccc3c2O[C@H](CN(C)C(=O)Nc2ccc(OC)cc2)[C@@H](C)CN([C@H](C)CO)C3=O)cc1 ?
PD-1 reversal: 0.8; YB-1 expr inh: 0.078; Hedgehog inh: -3; MITF inhib: -27

How did c1ccc(Cn2c3ccccc3c3nnc(SCc4ccc5nonc5c4)nc32)cc1 do in these assays?
PD-1 reversal: -0.8; MITF inhib: 21

How did Cc1noc(C)c1NC(=O)N(C)C[C@H]1Oc2c(NC(=O)c3ccncc3)cccc2C(=O)N([C@@H](C)CO)C[C@@H]1C do in these assays?
PD-1 reversal: 1.4; YB-1 expr inh: 0.078; Hedgehog inh: -16; MITF inhib: -10

Results for CCN(CC)CCNc1ncnc2sc3c(c12)CC(C)(C)OC3 ?
PD-1 reversal: 0.2; MITF inhib: -23

What do the screens show for `Oc1ccc(-n2cccc2)cc1`?
PD-1 reversal: -1.8; YB-1 expr inh: 0.2; Hedgehog inh: 31; MITF inhib: -16

How did Cc1noc(C)c1S(=O)(=O)N(C)C[C@H]1Oc2ccc(NS(=O)(=O)c3ccccc3)cc2CC(=O)N([C@@H](C)CO)C[C@H]1C do in these assays?
PD-1 reversal: -0.6; YB-1 expr inh: -0.26; MITF inhib: -18

What do the screens show for `COc1ccc(CN(C)C[C@H]2Oc3ccc(NS(=O)(=O)c4ccc(F)cc4)cc3C(=O)N([C@@H](C)CO)C[C@@H]2C)cc1`?
PD-1 reversal: -1.3; YB-1 expr inh: 0.3; Hedgehog inh: 22; MITF inhib: -3

What do the screens show for `Cc1c(-c2ccccc2)[n+](=O)c(-c2ccco2)c(C)n1[O-]`?
PD-1 reversal: 0.6; YB-1 expr inh: -0.3; Hedgehog inh: -14; MITF inhib: 1

How did Cc1ccc(S(=O)(=O)N(C)C[C@@H]2Oc3ccc(NS(=O)(=O)c4cn(C)cn4)cc3CC(=O)N([C@@H](C)CO)C[C@@H]2C)cc1 do in these assays?
PD-1 reversal: 1.5; YB-1 expr inh: 0.24; Hedgehog inh: -10; MITF inhib: -3

How did COc1c2ccoc2cc2oc(C)cc(=O)c12 do in these assays?
PD-1 reversal: 4.0; YB-1 expr inh: -1.2; Hedgehog inh: 47; MITF inhib: -4

How did C[C@@H]1CN([C@@H](C)CO)C(=O)c2cccc(NC(=O)c3cnccn3)c2O[C@H]1CN(C)Cc1ccc(C(=O)Nc2ccccc2N)cc1 do in these assays?
PD-1 reversal: -0.6; YB-1 expr inh: -0.4; MITF inhib: 10

What do the screens show for `COc1ccc(NC(=O)Nc2ccc3c(c2)C(=O)N([C@H](C)CO)C[C@H](C)[C@@H](CN(C)S(=O)(=O)c2ccc(Cl)cc2)OCCCC[C@@H](C)O3)cc1`?
YB-1 expr inh: -0.23; Hedgehog inh: 16; MITF inhib: 0

How did CNC[C@H]1Oc2ccc(NC(=O)NC3CCCCC3)cc2C(=O)N([C@@H](C)CO)C[C@H]1C do in these assays?
PD-1 reversal: 0.0; YB-1 expr inh: 0.21; Hedgehog inh: -3; MITF inhib: -2

How did C[C@@H]1CN([C@H](C)CO)C(=O)c2cc(N(C)C)ccc2O[C@@H]1CN(C)S(=O)(=O)c1cccs1 do in these assays?
YB-1 expr inh: 0.11; Hedgehog inh: 5; MITF inhib: -5

Results for C[C@H](CO)N1C[C@H](C)[C@@H](CN(C)S(C)(=O)=O)Oc2ccc(NS(=O)(=O)c3ccccc3)cc2C1=O ?
PD-1 reversal: 0.2; YB-1 expr inh: 0.21; Hedgehog inh: -9; MITF inhib: -2

Quoted from the entries so far, 11 compounds:
How did c1ccc(Cn2c3ccccc3c3nnc(SCc4ccc5nonc5c4)nc32)cc1 do in these assays?
PD-1 reversal: -0.8; MITF inhib: 21

How did Cc1noc(C)c1NC(=O)N(C)C[C@H]1Oc2c(NC(=O)c3ccncc3)cccc2C(=O)N([C@@H](C)CO)C[C@@H]1C do in these assays?
PD-1 reversal: 1.4; YB-1 expr inh: 0.078; Hedgehog inh: -16; MITF inhib: -10

Results for CCN(CC)CCNc1ncnc2sc3c(c12)CC(C)(C)OC3 ?
PD-1 reversal: 0.2; MITF inhib: -23

What do the screens show for `Oc1ccc(-n2cccc2)cc1`?
PD-1 reversal: -1.8; YB-1 expr inh: 0.2; Hedgehog inh: 31; MITF inhib: -16

How did Cc1noc(C)c1S(=O)(=O)N(C)C[C@H]1Oc2ccc(NS(=O)(=O)c3ccccc3)cc2CC(=O)N([C@@H](C)CO)C[C@H]1C do in these assays?
PD-1 reversal: -0.6; YB-1 expr inh: -0.26; MITF inhib: -18

What do the screens show for `COc1ccc(CN(C)C[C@H]2Oc3ccc(NS(=O)(=O)c4ccc(F)cc4)cc3C(=O)N([C@@H](C)CO)C[C@@H]2C)cc1`?
PD-1 reversal: -1.3; YB-1 expr inh: 0.3; Hedgehog inh: 22; MITF inhib: -3

What do the screens show for `Cc1c(-c2ccccc2)[n+](=O)c(-c2ccco2)c(C)n1[O-]`?
PD-1 reversal: 0.6; YB-1 expr inh: -0.3; Hedgehog inh: -14; MITF inhib: 1

How did Cc1ccc(S(=O)(=O)N(C)C[C@@H]2Oc3ccc(NS(=O)(=O)c4cn(C)cn4)cc3CC(=O)N([C@@H](C)CO)C[C@@H]2C)cc1 do in these assays?
PD-1 reversal: 1.5; YB-1 expr inh: 0.24; Hedgehog inh: -10; MITF inhib: -3

How did COc1c2ccoc2cc2oc(C)cc(=O)c12 do in these assays?
PD-1 reversal: 4.0; YB-1 expr inh: -1.2; Hedgehog inh: 47; MITF inhib: -4

How did C[C@@H]1CN([C@@H](C)CO)C(=O)c2cccc(NC(=O)c3cnccn3)c2O[C@H]1CN(C)Cc1ccc(C(=O)Nc2ccccc2N)cc1 do in these assays?
PD-1 reversal: -0.6; YB-1 expr inh: -0.4; MITF inhib: 10

What do the screens show for `COc1ccc(NC(=O)Nc2ccc3c(c2)C(=O)N([C@H](C)CO)C[C@H](C)[C@@H](CN(C)S(=O)(=O)c2ccc(Cl)cc2)OCCCC[C@@H](C)O3)cc1`?
YB-1 expr inh: -0.23; Hedgehog inh: 16; MITF inhib: 0

(next part)
How did Cc1nn(C(C)(C)C)c(OC(=O)c2ccc(Cl)cc2)c1S(=O)(=O)c1ccccc1 do in these assays?
PD-1 reversal: -3.2; MITF inhib: 30

How did C[C@H]1CN([C@@H](C)CO)C(=O)c2cccc(NC(=O)c3nc4ccccc4s3)c2O[C@@H]1CN(C)S(=O)(=O)c1cn(C)cn1 do in these assays?
YB-1 expr inh: 0.1; Hedgehog inh: 13; MITF inhib: -3

What do the screens show for `COc1cccc(/C=C2\N=C(SC)SC2=O)c1`?
PD-1 reversal: 5.3; YB-1 expr inh: -3.4; Hedgehog inh: -6; MITF inhib: 19

What do the screens show for `Cc1ccccc1OCCNC(=O)c1ccco1`?
PD-1 reversal: -0.6; YB-1 expr inh: -0.39; Hedgehog inh: -41; MITF inhib: -37

Results for C[C@H](CO)N1C[C@H](C)[C@@H](CN(C)C(=O)Nc2ccc3c(c2)OCO3)Oc2c(NS(=O)(=O)c3ccc(F)cc3)cccc2C1=O ?
PD-1 reversal: 1.8; YB-1 expr inh: -0.18; Hedgehog inh: -20; MITF inhib: 3

What do the screens show for `COc1ccc(CN(C)C[C@@H]2Oc3c(NC(=O)Nc4c(C)noc4C)cccc3C(=O)N([C@@H](C)CO)C[C@H]2C)cc1`?
PD-1 reversal: -1.5; YB-1 expr inh: -0.29; Hedgehog inh: 4; MITF inhib: 0

Results for C[C@@H]1CN([C@H](C)CO)C(=O)Cc2cc(NS(=O)(=O)c3cn(C)cn3)ccc2O[C@H]1CN(C)C(=O)Nc1cccc2ccccc12 ?
YB-1 expr inh: 0.058; Hedgehog inh: 3; MITF inhib: 12

Results for C[C@H](CO)N1C[C@H](C)[C@@H](CN(C)C(=O)Nc2cccc3ccccc23)Oc2c(NC(=O)Nc3ccc(C(F)(F)F)cc3)cccc2C1=O ?
PD-1 reversal: -4.3; YB-1 expr inh: 0.56; Hedgehog inh: -26; MITF inhib: 13

How did C[C@H]1CN([C@@H](C)CO)C(=O)Cc2cc(NC(=O)c3ccncc3)ccc2O[C@H]1CN(C)C(=O)Nc1ccc2c(c1)OCO2 do in these assays?
PD-1 reversal: 0.3; YB-1 expr inh: -0.051; Hedgehog inh: 45; MITF inhib: -1

How did COC(=O)C1=COC(O[C@@H]2O[C@H](CO)[C@@H](O)[C@H](O)[C@H]2O)[C@@H]2[C@@](C)(O)[C@@H](OC(=O)/C=C/c3ccc(OC)cc3)C[C@]12O (stereo partly drawn) do in these assays?
PD-1 reversal: -0.9; YB-1 expr inh: -0.46; Hedgehog inh: -18; MITF inhib: -5

Results for COc1ccc(NC(=O)Nc2cccc3c2O[C@@H](CN(C)Cc2ccc(-c4ccccc4)cc2)[C@H](C)CN([C@@H](C)CO)C3=O)cc1 ?
YB-1 expr inh: -0.25; Hedgehog inh: -21; MITF inhib: 1

How did C[C@H]1CN([C@@H](C)CO)C(=O)c2cc(NS(=O)(=O)c3ccc(F)cc3)ccc2O[C@@H]1CN(C)C(=O)Nc1ccc(F)cc1 do in these assays?
PD-1 reversal: -1.1; YB-1 expr inh: -0.6; Hedgehog inh: -26; MITF inhib: -13

Results for C[C@H](CO)N1C[C@H](C)[C@H](CN(C)CC2CC2)Oc2ccc(NC(=O)C3CCCCC3)cc2CC1=O ?
YB-1 expr inh: 0.038; Hedgehog inh: 1; MITF inhib: -7

Results for O=C(c1cccs1)N1N=C2c3ccccc3CCC2C1c1ccccc1Cl (stereo not drawn) ?
PD-1 reversal: -0.4; YB-1 expr inh: -1; MITF inhib: 6

What do the screens show for `CCCCC/C=C\C/C=C\CCCCCCCC(=O)O`?
PD-1 reversal: 5.0; YB-1 expr inh: -0.036; Hedgehog inh: 35; MITF inhib: -6

What do the screens show for `N#Cc1ccccc1NC(=O)CCCN1C(=O)c2ccccc2C1=O`?
PD-1 reversal: -0.2; MITF inhib: 7

What do the screens show for `O=C(Nc1ccccc1C(=O)NCCOc1ccccc1)c1ccc(Cl)cc1`?
PD-1 reversal: -2.4; MITF inhib: -41

How did C[C@@H]1CN([C@H](C)CO)C(=O)c2cccc(NC(=O)c3ccc(-c4nccs4)cc3)c2O[C@@H]1CN(C)S(=O)(=O)c1ccc(Cl)cc1 do in these assays?
PD-1 reversal: -0.9; YB-1 expr inh: 0.32; Hedgehog inh: -49; MITF inhib: 2

Results for N#Cc1c(/N=C/c2ccccc2)sc2c1CCCC2 ?
PD-1 reversal: -0.7; YB-1 expr inh: -0.24; Hedgehog inh: -35; MITF inhib: -84

What do the screens show for `CC(=O)Nc1nonc1-c1nc2ccccc2n1Cc1ccccc1Br`?
PD-1 reversal: -3.8; MITF inhib: 11

Screening data: PubChem, Broad Institute
